PINK1 modulator: PINK1 expression modulation; PINK1 immunofluorescence, high-content cytometry, 24 h; hit rate 0.2% among 410,000; Potency, µM (titrated, usually from 76.6 µM), for the others: at the top dose activation (PINK1 increase), actives largely listed as activators; AID 624263; active = well fitted activation curve with a large enough effect; inconclusive = small, poorly fitted or top-dose-only effect; inactive = flat fitted curve, though single readings scatter; cell line not stated here;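 further: potency means the concentration at half of the fitted maximal effect; % of control where 0% means no effect; nearly all actives have a fitted effect of over 65% in size; a mitochondrial uncoupler was the plate control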
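Cells are seeded, rested 12 hours, then given compound at five concentrations or DMSO for 24 hours. After fixation, blocking and antibody staining, PINK1 amount and mitochondrial localization are scored; CCCP serves as control.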
Menin-MLL FL inh: displaces fluorescein MLL peptide from human menin | Fluorescence polarization, fluorescein-MLL peptide displacement from menin | FP activity change, % at 61.4 µM | 290,000 tested, under 10 active | AID 1766; inconclusive = falling polarisation curve, or a change in total fluorescence; inactive = total fluorescence flat and polarisation flat or rising; no compound was filed as active; the % refers to the polarisation; negative = inhibition;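 further: % of control where 0% means no effect; inhibitors lower the polarisation; unlabelled MLL peptide was the positive control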
D2 ag: human D2 receptor agonism in beta-arrestin assay; P14416; DiscoveRx PathHunter D2 beta-arrestin, luminescence, 90 min; 100% = 57 uM dopamine signal; activation, % (test concentration not listed); AID 624465; hit rate 0.084% among 360,000; in the data active = activation above about 40%; inconclusive = about 15% to 40%; inactive = below about 15%; further: compound concentration not given in the record; the text of the record calls up to 30% inactive
Target sequence (P14416 whole entry, looked up): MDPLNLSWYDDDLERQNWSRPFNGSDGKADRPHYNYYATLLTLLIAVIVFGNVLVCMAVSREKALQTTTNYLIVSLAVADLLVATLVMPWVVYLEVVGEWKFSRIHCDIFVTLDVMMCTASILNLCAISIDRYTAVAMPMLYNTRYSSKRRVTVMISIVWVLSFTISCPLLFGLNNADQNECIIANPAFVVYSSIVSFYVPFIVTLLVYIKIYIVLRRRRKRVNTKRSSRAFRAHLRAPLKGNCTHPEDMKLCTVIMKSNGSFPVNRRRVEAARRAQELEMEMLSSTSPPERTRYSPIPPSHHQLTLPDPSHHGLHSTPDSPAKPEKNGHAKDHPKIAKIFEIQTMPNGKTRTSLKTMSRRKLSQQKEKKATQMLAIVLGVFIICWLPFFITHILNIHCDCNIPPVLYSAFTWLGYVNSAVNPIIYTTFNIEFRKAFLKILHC
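Agonist mode: compounds alone added to overnight-plated D2 PathHunter cells for 90 min at 37 C, with 57 uM final dopamine (EC100) defining full response. Beta-arrestin recruitment detected by chemiluminescent reagent, read after 1 h at ambient temperature.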
ClpP mod: qHTS Assay for Activators of ClpP. ATP-dependent Clp protease proteolytic subunit (Bacillus subtilis (strain 168)), P80244. purified B. subtilis ClpP, FRET peptide cleavage, 20 min. Potency, µM (titrated, usually from 57.5 µM), without a hit: at the top dose activity change, negative = active. hit rate 1.9% among 340,000. AID 651965, 2013; active = well fitted falling curve with a large enough effect; inconclusive = small, poorly fitted or top-dose-only effect; inactive = no such curve, though single readings can be large or run the other way; further: potency means the concentration at half of the fitted maximal effect; the source files actives as falling curves though it sought activators and does not explain the sign; nearly all actives have a fitted effect of over 65% in size; many hits overshoot -100%
Target sequence (P80244 whole entry, looked up): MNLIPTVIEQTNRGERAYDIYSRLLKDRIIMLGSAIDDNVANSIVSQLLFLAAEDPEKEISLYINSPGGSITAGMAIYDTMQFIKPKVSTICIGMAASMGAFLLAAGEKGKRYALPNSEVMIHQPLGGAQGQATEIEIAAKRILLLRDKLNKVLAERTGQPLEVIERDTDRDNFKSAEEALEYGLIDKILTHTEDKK
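Buffer: 100 mM Tris/HCl pH8, 100 mM KCl, 0.05% low protease BSA, 2.5% glycerol, 0.01% Tween-20. ClpP 10 microg/mL final; 20 min RT; delta FRET normalized to ADEP and DMSO controls.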
Sfp inh: Sfp phosphopantetheinyl transferase inhibition | Biochemical Sfp PPTase activity, qHTS | Potency, µM, inactives show max response, negative = inhibition, most hits filed as inhibitors | hit rate 3.5% among 310,000 | AID 1490; active means well fitted inhibition curve with a large enough effect; inconclusive means small, poorly fitted or top-dose-only effect, or another doubt; inactive means no such curve, though single readings can be large or run the other way;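 further: the enzyme is Sfp with the accession as filed and its product quenches rhodamine fluorescence; potency means the concentration at half of the fitted maximal effect; 0% = enzyme reaction without inhibitor and -100% = no enzyme wells; top concentration of the series not given in the record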
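Sfp 15 nM + cpd, 15 min RT; start w/ rhodamine-CoA 5 uM, BHQ-2-YbbR 12.5 uM (final); 50 mM Hepes pH 7.6, 10 mM MgCl2, 0.01% NP-40, 0.01% BSA; read 525/598 nm at 0 and 30 min.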
gsp agonist: activates gsp, the McCune-Albright syndrome mutation; Potency, µM (doses to about 76.9 µM), for inactives: at the top dose activation (cAMP increase), most hits filed as activators; hit rate 0.13% among 340,000; gsp mutant cells, cAMP HTRF, 30 min; control for the full effect not named in the record; active = well fitted activation curve with a large enough effect; inconclusive = small, poorly fitted or top-dose-only effect, or another doubt; inactive = no such curve, though single readings can be large or run the other way; cell line not stated here;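 further: phosphodiesterase inhibitor Ro 20-1724 added with compounds to block cAMP breakdown; potency means the concentration at half of the fitted maximal effect; nearly all actives have a fitted effect of over 60% in size; about a fifth of the inactives were tested at one dose only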
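Cells stably selected in G418 were plated at 2000/well, grown 16-24 hr, then given compounds in DMSO with the PDE inhibitor […] (300 uM solution added) for 30 min at 37C; cAMP was read by HTRF.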
gsp antagonist: antagonizes gsp, the McCune-Albright syndrome mutation. gsp-mutant cells, cAMP HTRF, 30 min; control for the full effect not named in the record. Potency, µM (series often up to 76.9 µM), inactives show top-dose activity change, negative = inhibition, hits mostly inhibitors. hit rate 0.4% among 340,000; active = falling curve of any shape with a large fitted effect; inconclusive = falling curve, mostly with a smaller effect; inactive = flat or rising curve; cell line not stated here;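 further: intracellular cAMP measured with PDE inhibitor Ro 20-1724 present during compound exposure; potency means the concentration at half of the fitted maximal effect; on the % scale 0 is the no-effect control and ±100 the full control effect; nearly all actives have a fitted effect of over 65% in size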
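HTRF cAMP measurement after 30 min RT detection following 30 min, 37C compound treatment alongside […] (added as 300 uM solution) in G418-selected cells seeded at 2000/well and grown 16–24 h.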
* hit, by the source's call; & = joins results of further samples; [ ] = another dose, or the depositor's remark.

How did COC(=O)c1cc2ccsc2n1CC(=O)Nc1cc(Cl)ccc1OC do in these assays?
Menin-MLL FL inh: 12.2; D2 ag: 2.3; ClpP mod: -9.1%; Sfp inh: 16.9%; gsp agonist: 8.5%; gsp antagonist: -29.0%

What do the screens show for `CC1CC(C)CN(S(=O)(=O)c2ccc3c(c2)CC(C)N3C(=O)C2CC2)C1` (stereo not drawn)?
PINK1 modulator: 5.7%; Menin-MLL FL inh: -4.4; D2 ag: 1.2; ClpP mod: -5.1%; Sfp inh: -16.7%; gsp agonist: 5.2%; gsp antagonist: 4.5%

Results for Cc1ccc2[nH]c(=O)c(CN(Cc3cccs3)S(=O)(=O)c3ccc4c(c3)OCCO4)cc2c1 ?
PINK1 modulator: -0.1%; Menin-MLL FL inh: 0.5; D2 ag: -2.8; ClpP mod: -3.9%; Sfp inh: 2.6%; gsp agonist: -0.7%; gsp antagonist: 2.7%

How did O=S(=O)(NCCSCc1ccc(Cl)cc1Cl)c1ccc2c(c1)OCCO2 do in these assays?
PINK1 modulator: -2.5%; Menin-MLL FL inh: -0.6; D2 ag: -1.3; ClpP mod: -0.3%; Sfp inh: 1.5%; gsp agonist: 27.4%; gsp antagonist: inconclusive

Results for CCC(Oc1ccccc1)C(=O)Nc1nnc(S(=O)(=O)Nc2ccccc2)s1 (stereo not drawn) ?
PINK1 modulator: 1.8%&-1.7%; Menin-MLL FL inh: 3.4; D2 ag: -4.0; ClpP mod: -1.2%&-5.5%; Sfp inh: 30.8%[activator]; gsp agonist: -21.1%; gsp antagonist: -18.0%

How did CC1(C(=O)Nc2cccc(C#N)c2)CCN1C(=O)C/C=C/c1ccccc1 (stereo not drawn) do in these assays?
PINK1 modulator: 1.3%; D2 ag: -3.8; ClpP mod: 1.1%

Results for CCCOc1ccc(C(=O)NNC(=S)NC(=O)c2ccccc2[N+](=O)[O-])cc1 ?
PINK1 modulator: 0.9%; Menin-MLL FL inh: -3.6; D2 ag: 2.0; ClpP mod: -0.2%; Sfp inh: 31.3%[activator]; gsp agonist: 0.9%[15.4 µM]; gsp antagonist: -13.5%

What do the screens show for `CCCCC[C@@H]1C=C(C(=O)O)[C@H](c2ccc(C#N)cc2)N1S(=O)(=O)c1ccc(C)cc1`?
PINK1 modulator: -0.4%; D2 ag: -1.0; ClpP mod: -1.4%; gsp antagonist: -27.0%

Results for Cn1c2ccccc2c2c(C(=O)N3CCN(c4ccccc4)CC3)cn(C3CCCC3)c(=O)c21 ?
PINK1 modulator: 0.3%; Menin-MLL FL inh: 5.3; D2 ag: -5.5; ClpP mod: inconclusive; Sfp inh: -4.1%; gsp agonist: -0.7%; gsp antagonist: 29.7%

How did Cc1ccc(NC(=O)N2CCCC2C(=O)Nc2ccc(-n3cnnn3)c(C)c2)cc1 (stereo not drawn) do in these assays?
PINK1 modulator: -0.4%; Menin-MLL FL inh: -2.1; D2 ag: -5.7; ClpP mod: 1.9%; Sfp inh: 12.9%; gsp agonist: 11.8%; gsp antagonist: -1.5%[15.4 µM]

What do the screens show for `Cc1ccc(C(=O)CSc2nc(-c3ccccc3)cc(=O)[nH]2)cc1`?
PINK1 modulator: 5.4%; Menin-MLL FL inh: 5.1; D2 ag: 1.5; Sfp inh: -8.1%; gsp agonist: 16.7%; gsp antagonist: -7.2%

How did Cc1onc(-c2c(F)cccc2Cl)c1-c1nnc(-c2ccc(C(F)(F)F)cc2)o1 do in these assays?
PINK1 modulator: 1.4%; Menin-MLL FL inh: -4.9; D2 ag: 0.0; Sfp inh: 13.5%; gsp agonist: 4.4%[15.4 µM]; gsp antagonist: -21.0%

What do the screens show for `COc1ccc2nc(N3C(=O)CNC3=S)sc2c1`?
PINK1 modulator: 0.3%; Menin-MLL FL inh: 0.4; D2 ag: -1.9; Sfp inh: -28.7%; gsp agonist: -3.9%[15.4 µM]; gsp antagonist: -5.9%

Results for CC1=CC(C)(C)n2c(O)c(N=NC(N)=S)c3c(C)c(C)cc1c32 ?
PINK1 modulator: 0.1%; Menin-MLL FL inh: -3.6; D2 ag: -0.9; ClpP mod: 2.3%; Sfp inh: 5.6%; gsp agonist: inconclusive; gsp antagonist: 14.2%

How did Cc1ccc(NC(=S)N(CCCN2CCOCC2)Cc2ccco2)cc1Cl do in these assays?
PINK1 modulator: -1.3%; Menin-MLL FL inh: 0.7; D2 ag: 2.2; ClpP mod: -1.5%; Sfp inh: -17.0%; gsp agonist: 15.5%[15.4 µM]; gsp antagonist: -4.6%

How did CCCCNC(=O)CNC(=O)c1cccs1 do in these assays?
PINK1 modulator: 4.8%[38.3 µM]; Menin-MLL FL inh: 3.3; D2 ag: -2.8; ClpP mod: -1.1%; Sfp inh: 5.9%; gsp agonist: -23.4%; gsp antagonist: 8.9%

Results for COC(=O)c1ccc(Sc2ccccc2NS(=O)(=O)c2ccc(C)cc2)nc1 ?
PINK1 modulator: 2.8%; Menin-MLL FL inh: 14.0; D2 ag: -3.4; ClpP mod: 0.2%; Sfp inh: 7.7%; gsp agonist: -44.5%[inhibitor]; gsp antagonist: -15.6%

What do the screens show for `O=C(CSc1nc(=O)n(CCCN2CCOCC2)c2c1CCCC2)Nc1cccc([N+](=O)[O-])c1`?
PINK1 modulator: -2.0%; D2 ag: -4.3; ClpP mod: -3.0%; gsp agonist: 25.0%; gsp antagonist: 4.3%

Results for CC(=O)Nc1ccc(SC[C@H](Cc2ccccc2)N2CC[C@@H](C(C)(C)C)CCC2=O)cc1 ?
PINK1 modulator: 20.0%; D2 ag: -0.3; ClpP mod: -0.1%&-0.2%; gsp agonist: 7.0%; gsp antagonist: inconclusive

Results for CN(CC1COc2ccccc2O1)C(=O)CSc1nncs1 (stereo not drawn) ?
PINK1 modulator: -0.2%; D2 ag: -3.1; ClpP mod: 1.3%; gsp agonist: -0.1%[15.4 µM]; gsp antagonist: 5.1%

What do the screens show for `Cc1cn([C@H]2C[C@H](O)[C@@H](/C=C/C(=O)N3CCN(Cc4ccc(F)cc4)CC3)O2)c(=O)[nH]c1=O`?
PINK1 modulator: 2.6%; D2 ag: -2.4; ClpP mod: 0.3%

How did Clc1ccc(Sc2cc(Cl)c(-c3ccccc3)nn2)cc1 do in these assays?
PINK1 modulator: 0.0%; Menin-MLL FL inh: 5.5; D2 ag: 0.5; ClpP mod: -0.1%; Sfp inh: 3.9%; gsp agonist: -20.4%; gsp antagonist: -7.9%

Results for CC1=C(C(=O)Nc2ccc(C(=O)NCCCN3CCCCC3)cc2)SCCO1 ?
PINK1 modulator: -1.0%; D2 ag: -7.4; ClpP mod: -0.9%; Sfp inh: 14.3%; gsp agonist: 23.8%; gsp antagonist: 8.1%

How did COc1ccc(CN(Cc2cccn2C)S(=O)(=O)c2ccc(F)cc2)cc1 do in these assays?
PINK1 modulator: 0.6%; Menin-MLL FL inh: -0.2; D2 ag: -1.1; Sfp inh: 2.8%; gsp agonist: -7.4%; gsp antagonist: 2.7%

Results for Cc1ccccc1CN1CCN(CC(=O)NCc2ccco2)C1=O ?
PINK1 modulator: 0.2%; Menin-MLL FL inh: 3.8; D2 ag: 1.5; ClpP mod: -1.3%; Sfp inh: -8.1%; gsp agonist: inconclusive; gsp antagonist: 3.2%

What do the screens show for `C=CCn1c(SCC(=O)N(C)c2c(N)n(Cc3ccccc3)c(=O)[nH]c2=O)nnc1-c1ccccc1OC`?
PINK1 modulator: 0.2%; Menin-MLL FL inh: 1.7; D2 ag: -4.9; ClpP mod: 0.7%; Sfp inh: 10.6%; gsp agonist: -30.9%[inhibitor]; gsp antagonist: 5.4%

What do the screens show for `NC(=O)Nc1ccc(C(=O)OCC(=O)NC2CCCCC2)cc1`?
PINK1 modulator: -0.9%; Menin-MLL FL inh: -3.1; D2 ag: 5.0; ClpP mod: 0.0%; Sfp inh: 13.2%; gsp agonist: 0.2%; gsp antagonist: 3.8%

How did O=C(/C=C/c1ccc(F)cc1)NC(=S)NNC(=O)c1cccnc1 do in these assays?
PINK1 modulator: 0.5%; Menin-MLL FL inh: 1.6; D2 ag: -1.2; ClpP mod: 2.1%; Sfp inh: -0.7%; gsp agonist: -0.4%; gsp antagonist: 5.7%

Results for O=C(CSc1nnc(-c2cccs2)n1-c1ccccc1)NCc1ccco1 ?
PINK1 modulator: 1.2%; Menin-MLL FL inh: -3.6; D2 ag: -2.0; ClpP mod: -5.2%; Sfp inh: 14.2%; gsp agonist: 28.1%; gsp antagonist: -32.1%

Results for CC(=O)C1=C(C)NC(=O)CC1c1ccccc1Cl (stereo not drawn) ?
PINK1 modulator: 4.2%; Menin-MLL FL inh: 2.4; D2 ag: 1.4; Sfp inh: 22.7%; gsp agonist: 25.0%; gsp antagonist: -2.8%

Results for CCC(=O)c1ccccc1OCCCN1C(=O)NC(C)(C)C1=O ?
PINK1 modulator: 2.2%[38.3 µM]; Menin-MLL FL inh: 1.9; D2 ag: -0.5; ClpP mod: -5.9%; Sfp inh: 15.0%; gsp agonist: inconclusive; gsp antagonist: -5.3%

What do the screens show for `C[C@@H]1ON(C)[C@H]2C[C@H]3c4[nH]c5ccc(-c6ccc7c(c6)OCO7)cc5c4CCN3C[C@@H]12`?
PINK1 modulator: 0.6%; D2 ag: -5.0; ClpP mod: 4.0%; gsp agonist: -24.3%

Results for O=C(c1ccccc1)N1CCCCC(S(=O)(=O)c2ccccc2)C1=O (stereo not drawn) ?
PINK1 modulator: 8.6%[38.3 µM]; Menin-MLL FL inh: -0.5; D2 ag: 3.0; ClpP mod: 0.7%; Sfp inh: 16.0%; gsp agonist: -1.3%; gsp antagonist: 7.9%

How did CCNC(=O)c1cccc(NC(=O)C2CC(=O)N(CCc3ccccc3)C2)c1 (stereo not drawn) do in these assays?
PINK1 modulator: 0.0%; D2 ag: -1.0; ClpP mod: -1.1%; gsp agonist: 5.6%; gsp antagonist: 9.2%

Results for CC(OC(=O)c1ccc(-n2cnnn2)cc1)C(=O)N(C)c1ccccc1 (stereo not drawn) ?
PINK1 modulator: 2.7%; D2 ag: -2.8; ClpP mod: -2.2%; gsp agonist: -5.2%; gsp antagonist: 1.9%
